RGS16-Gao HTS – RGS16-Galphao interaction regulator (human); 220,000 tested, 0.38% active; binding response (% of control), % at 10 µM; O15492+P09471; AID 1441; bead-based flow cytometry RGS16-Galphao binding, fluorescence; actives lie on both sides;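 active = below 25% or above 175%, edge rows of some plates excepted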;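 also: Galphao activated by GDP with aluminum fluoride before binding; 100% = wells without compound and 0% = beads without RGS; some results beyond the cut were filed as inactive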
Target sequence (O15492 whole entry, looked up): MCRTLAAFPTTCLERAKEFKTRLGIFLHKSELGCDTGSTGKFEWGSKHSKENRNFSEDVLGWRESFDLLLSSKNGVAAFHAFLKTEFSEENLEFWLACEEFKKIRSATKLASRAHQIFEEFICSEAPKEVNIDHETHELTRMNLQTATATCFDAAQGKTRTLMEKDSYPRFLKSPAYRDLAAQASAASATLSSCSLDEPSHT
Target sequence (P09471 whole entry, looked up): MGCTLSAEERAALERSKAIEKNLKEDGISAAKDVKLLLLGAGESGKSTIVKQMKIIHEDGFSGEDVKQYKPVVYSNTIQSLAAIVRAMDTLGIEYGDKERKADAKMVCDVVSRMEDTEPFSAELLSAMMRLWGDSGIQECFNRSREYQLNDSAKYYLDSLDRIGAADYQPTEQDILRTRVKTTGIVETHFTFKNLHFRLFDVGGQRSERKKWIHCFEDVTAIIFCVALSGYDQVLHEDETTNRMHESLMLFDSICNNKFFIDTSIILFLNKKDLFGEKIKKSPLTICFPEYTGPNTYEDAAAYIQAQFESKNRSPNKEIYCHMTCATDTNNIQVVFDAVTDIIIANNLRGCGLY
GALR2 ag – agonists of human galanin receptor 2 (GALR2); O43603; activation, %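 (tested at 5 µM)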; 140,000 tested, 0.48% active; AID 803; GALR2-expressing cells, agonist activation read-out;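 active = above mean plus 3 SD of all compounds, about 5% in these data, not always enough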;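 also: 0% = vehicle buffer wells and 100% = reference agonist at full effect; tested in CHO reporter cells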
Target sequence (O43603 whole entry, looked up): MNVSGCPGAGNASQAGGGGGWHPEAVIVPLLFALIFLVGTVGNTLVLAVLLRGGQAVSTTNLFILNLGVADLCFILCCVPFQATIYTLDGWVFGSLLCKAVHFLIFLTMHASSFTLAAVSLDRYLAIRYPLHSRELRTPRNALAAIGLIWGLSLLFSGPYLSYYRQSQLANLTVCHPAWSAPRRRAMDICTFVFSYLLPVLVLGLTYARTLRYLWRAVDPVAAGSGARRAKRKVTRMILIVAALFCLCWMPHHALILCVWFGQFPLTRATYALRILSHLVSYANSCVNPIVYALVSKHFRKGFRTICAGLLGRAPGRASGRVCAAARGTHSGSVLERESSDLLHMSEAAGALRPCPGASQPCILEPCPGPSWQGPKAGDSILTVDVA
HSV augment – HSV replication enhancement; 220,000 tested, 0.005% active; HSV replication augmentation in cells, fold increase; maximum fold increase; AID 1956;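 active = peak rise of 1.5-fold or more in the series; inconclusive = self-fluorescent or not available for retest; tested in PC3 cells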;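 also: first round at 10 µM; read as green reporter fluorescence; hits show the peak of a series up to 25 µM; 1 = signal of infected wells without compound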
Insulin prom inh – TRM-6 insulin promoter activity inhibition; inhibition, % at 2 µM; TRM-6 cells (human fetal islet line), insulin promoter-eGFP reporter, imaging; reporter expression induced with tamoxifen; AID 1273; 130,000 tested, 0.9% active;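 active = inhibition above the mean plus 3 SD, with well images judged a real hit on visual review, cut at about 60% in these data, passing the limit was not always enough; inconclusive = inhibition over the cutoff but images rejected on review; inactive = inhibition not above the cutoff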
PKD1 inh – inhibitors of human PKD1 kinase; PKD1 kinase fluorescence polarization assay; inhibition, %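 (about 10 µM by stock and volumes)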; 200,000 tested, 0.056% active; AID 797;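 active = inhibition of 50% or more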;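 also: controls were vehicle for no effect and a reference inhibitor for full effect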
Insulin prom inh cell count – second read-out of Insulin prom inh, no call of its own (marks repeat the call); normalized cell count, %; measured here: cell count, toxicity; reference of the scale not given here;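 cells exposed to compound for 48 h; stained nuclei by imaging scaled within each plate; lower means fewer cells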
HSV augment primary fold – second read-out of HSV augment, no call of its own (marks repeat the call); fold increase; compound at 10 µM; measured here: primary screen fold increase 10 uM; tested in PC3 cells;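 GFP signal in the first replicate; 1 = infected wells without compound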
The depositor's hits bear a star; i = inactive; ? = inconclusive; / = no result given.

Values run as follows: RGS16-Gao HTS | GALR2 ag | HSV augment | HSV augment primary fold | Insulin prom inh | Insulin prom inh cell count | PKD1 inh
C#CCN(C(=O)Nc1ccccc1)c1ccccc1
    118 | -1.5 | i | 1 | / | / | -5
Cn1nnnc1SCC(=O)NCc1cccs1
    110 | -2.6 | i | 0.89 | -45 | 138 | -11
CC[C@H](C)[C@H](NC(N)=O)C(=O)Nc1ccc(S(=O)(=O)NC(C)C)cc1
    101 | / | i | 0.91 | / | / | /
O=C(Nc1ccccc1)Nc1ccccc1C(=O)NCC1CC1
    87 | / | i | 0.97 | / | / | /
Brc1cc(Cc2nnc(-c3ccccc3)o2)c(Br)s1
    114 | / | i | 1 | / | / | /
COc1ccc(CNC(=O)c2ccc3c(c2)NC(=O)C(C)S3)cc1 (configuration not stated)
    98 | / | i | 1 | / | / | /
CC(/C=C/C=C/c1ccccc1)=N/NC(=O)c1ccc2c(c1)OCCO2
    103 | / | i | 0.93 | / | / | /
CNCCOc1ccccc1OC(C)C
    97 | / | i | 1 | / | / | -1
CCCC1CCc2c(c3ccccc3[nH]c2=O)O1 (configuration not stated)
    91 | 0.2 | i | 0.92 | -7 | 78 | 3
O=C(NC(C(=O)c1ccccc1)N1CCCCCC1)c1ccco1 (configuration not stated)
    103 | -1.5 | i | 1.1 | / | / | -1
CCN(C(=O)COC(=O)/C=C/c1ccccc1[N+](=O)[O-])C1CCS(=O)(=O)C1 (configuration not stated)
    103 | / | i | 0.92 | -58 | 87 | -3
CCOC(=O)c1cccc(NC(=O)/C(=C\c2ccccc2)NC(=O)c2ccccc2Cl)c1
    102 | -0.8 | i | 0.88 | 32 | 105 | 1
CCn1cc(C(=O)NCc2ccco2)c(=O)c2cc(S(=O)(=O)N3CC(C)CC(C)C3)ccc21 (configuration not stated)
    102 | -2.5 | i | 0.77 | / | / | 11
CC1(c2ccc(Cl)cc2)NC(=O)N(CC(=O)NCc2cccs2)C1=O (configuration not stated)
    107 | 0.2 | i | 0.95 | 14 | 122 | -7
N#Cc1cn(CC(=O)N2CCc3ccccc3C2)c2ccccc12
    113 | -2.1 | i | 1 | 14 | 68 | 1
c1ccc2c(c1)nnn1c3ccccc3nc21
    95 | 1.6 | i | 0.92 | 0 | 147 | 2
Cc1cc(=O)[nH]c(SCC(=O)Nc2nc(-c3ccccc3)c(-c3ccccc3)o2)n1
    101 | -0.6 | i | 0.89 | -56 | 119 | -6
Cc1oc(-c2ccc(Cl)cc2)nc1CS(=O)CC(=O)NCc1cccs1 (configuration not stated)
    100 | -2.0 | i | 1.1 | / | / | 1
COC(=O)c1ccc(S(=O)(=O)NCc2ccc(S(N)(=O)=O)cc2)o1
    99 | / | i | 1 | / | / | /
O=C(OCc1ccccc1)/C(=C/c1ccc(Cl)cc1)NC(=O)c1ccccc1Cl
    103 | -3.4 | i | 0.87 | / | / | -4
CCCCn1nnc(NC(=O)c2ccc([N+](=O)[O-])cc2Cl)n1
    101 | / | i | 0.96 | / | / | /
O=C(CSc1ccc([N+](=O)[O-])cn1)Nc1ccc2c(c1)OCCO2
    100 | / | i | 0.86 | / | / | -3
Cc1c(Cl)cccc1NC(=O)Nc1ccc(C(=O)N2CCCC2)cc1
    126 | -0.3 | i | 1.1 | / | / | -2
CCc1sc(NC(C)=O)nc1-c1ccccc1
    105 | / | i | 0.96 | 15 | 79 | 7
Cc1ccc(S(=O)(=O)N2CCN(C(=O)c3cccs3)CC2)cc1C
    108 | / | i | 1 | -82 | 67 | -10
N#C/C(=C\c1cn(CC(=O)N2CCCCC2)c2ccccc12)C(=O)NCc1ccc2c(c1)OCO2
    85 | -2.0 | i | 1 | -23 | 118 | 9
Oc1ccc(N=Cc2ccc(OCc3ccccc3)cc2)cc1
    105 | / | i | 0.88 | -41 | 159 | -1
COC(=O)CCCNC(=O)c1ccc2[nH]c(C)c(C)c2c1
    13 | / | i | 1 | 33 | 47 | 7
O=C(NCCc1c[nH]c2ccccc12)C1Cc2ccccc2CN1C(=O)c1ccco1 (configuration not stated)
    101 | -3.5 | i | 0.89 | -23 | 78 | -1
CCC(C)(C)NC(=O)CN(C(=O)CNS(=O)(=O)c1ccc(C)cc1)c1ccc2c(c1)OCCO2
    105 | -0.9 | i | 0.97 | / | / | -1
COCCNC(=O)CCCn1c(=O)c2cc(OC)c(OC)cc2n(CC(=O)NCCC2=CCCCC2)c1=O
    97 | / | i | 0.9 | 75* | 83* | 0
C=CCn1c(O)c(CN2CCN(Cc3ccccc3)CC2)c(C)c(C#N)c1=O
    104 | -0.9 | i | 1 | 29 | 78 | -3
CCC1CCC(C(=O)NNC(=O)OC)CC1 (configuration not stated)
    101 | 2.3 | i | 0.96 | 17 | 102 | -6
Cn1c(N2CCN(S(=O)(=O)c3ccc(Cl)cc3)CC2)nc2ccccc21
    113 | / | i | 0.98 | / | / | 0
O=C(NCCC(c1ccccc1)c1ccccc1)c1cnccn1
    100 | 1.0 | / | / | 8 | 158 | 0
O=C(NC(=O)c1ccccc1)Nc1ccc(-c2cnco2)cc1
    102 | / | i | 0.97 | / | / | /
COC(=O)C1(C)CCc2cc(OC)ccc2C1=O (configuration not stated)
    107 | -0.7 | i | 0.95 | 7 | 109 | 2
CC1Cc2ccccc2N1C(=O)CSc1nnc(NC(=O)Cc2cccs2)s1 (configuration not stated)
    54 | -1.3 | i | 0.94 | -39 | 95 | -1
COc1cccc(C(c2nnnn2C(C)(C)C)N2CCN(C3CCCCC3)CC2)c1OC (configuration not stated)
    101 | -1.6 | i | 0.98 | 21 | 70 | -9
CC(=O)Nc1c(C)cc(OCC(=O)O)cc1C
    103 | / | i | 1.1 | / | / | /
CC(=O)c1ccc(NCCC(=O)c2ccccc2)cc1
    97 | / | i | 0.97 | -74 | 106 | 4
CCn1c2ccccc2c2nnc(SCC(N)=O)nc21
    105 | -1.6 | i | 1 | 29 | 121 | -4
O=[N+]([O-])c1sccc1CS(=O)(=O)c1ccccc1
    106 | / | i | 0.86 | / | / | /
CC(=O)Nc1ccc(Oc2sc(C(=O)c3ccccc3)c(N)c2C#N)cc1
    100 | -0.2 | i | 0.71 | 32 | 105 | -2
Cc1c(C(C)NC(=O)Nc2ccc(F)cc2F)cnn1C (configuration not stated)
    103 | -0.3 | i | 0.76 | 0 | 111 | 0
Cc1ccc(C(=O)N2CCN(c3ccccc3F)CC2)cc1S(=O)(=O)N1CCOCC1
    97 | / | i | 1.1 | / | / | -2
CC(NC(=O)C(c1ccccc1)c1ccccc1)C(=O)O (configuration not stated)
    44 | -2.5 | i | 0.95 | 16 | 118 | -6
O=C(NC1CCCC1)c1ccc2nc[nH]c2c1
    107 | -3.7 | i | 0.91 | -3 | 170 | -1
CCOC(=O)Cc1csc(NC(=O)Nc2cccc(OC)c2)n1
    101 | / | i | 1.4 | / | / | /
NC(=O)Nc1ccc(Oc2c(F)c(F)c(F)c(F)c2F)cc1
    100 | -0.5 | i | 0.95 | 9 | 118 | 1
c1cc2c(cc1OCCNC1CCCC1)CCC2
    102 | / | i | 0.91 | / | / | -5
CCSc1nc2ccc(N3C(=O)C4C5C=CC(C5)C4C3=O)cc2s1 (configuration not stated)
    101 | -1.0 | i | 0.97 | / | / | 7
O=c1[nH]c2cc3c(cc2cc1C(c1nnnn1CC1CCCO1)N1CCCC1)OCO3 (configuration not stated)
    103 | 0.2 | i | 1 | 27 | 185 | -10
CCN(CC)Cc1c(O)ccc2occ(C(=O)c3ccc(OC)cc3)c12
    103 | -0.1 | i | 0.89 | -105 | 134 | -11
N#C/C(=C\c1ccc(N2CCCCC2)o1)C(N)=O
    101 | / | ? | / | / | / | -2
CN1C(=O)CC(NNC(=O)c2ccccc2)C1=O (configuration not stated)
    100 | -1.4 | i | 0.98 | 26 | 87 | -6
Cc1ccccc1CSCCNC(=O)CCSc1ccccc1
    99 | -1.2 | i | 0.72 | -3 | 90 | -6
CC(C)Oc1ccc(N2CC(C(=O)Nc3ccc(N4CCOCC4)cc3)CC2=O)cc1 (configuration not stated)
    80 | -2.2 | i | 0.8 | 14 | 128 | 1
CC(=O)Nc1c([N+](=O)[O-])cc(C)c(Cl)c1[N+](=O)[O-]
    101 | / | i | 0.66 | / | / | 4
COCCCn1c(C(C)C)nc2oc3cc(OC)ccc3c(=O)c2c1=O
    125 | 0.3 | i | 0.79 | / | / | 2

Seven records picked at random from those above:
Values run as follows: RGS16-Gao HTS | GALR2 ag | HSV augment | HSV augment primary fold | Insulin prom inh | Insulin prom inh cell count | PKD1 inh
N#C/C(=C\c1ccc(N2CCCCC2)o1)C(N)=O
    101 | / | ? | / | / | / | -2
CCN(CC)Cc1c(O)ccc2occ(C(=O)c3ccc(OC)cc3)c12
    103 | -0.1 | i | 0.89 | -105 | 134 | -11
CCOC(=O)Cc1csc(NC(=O)Nc2cccc(OC)c2)n1
    101 | / | i | 1.4 | / | / | /
Cn1c(N2CCN(S(=O)(=O)c3ccc(Cl)cc3)CC2)nc2ccccc21
    113 | / | i | 0.98 | / | / | 0
COc1cccc(C(c2nnnn2C(C)(C)C)N2CCN(C3CCCCC3)CC2)c1OC (configuration not stated)
    101 | -1.6 | i | 0.98 | 21 | 70 | -9
O=C(NCCC(c1ccccc1)c1ccccc1)c1cnccn1
    100 | 1.0 | / | / | 8 | 158 | 0
Cc1c(C(C)NC(=O)Nc2ccc(F)cc2F)cnn1C (configuration not stated)
    103 | -0.3 | i | 0.76 | 0 | 111 | 0

Two of these compounds in a different format.
Compound	RGS16-Gao HTS	GALR2 ag	HSV augment	HSV augment primary fold	Insulin prom inh	Insulin prom inh cell count	PKD1 inh
C=CCn1c(O)c(CN2CCN(Cc3ccccc3)CC2)c(C)c(C#N)c1=O	104	-0.9	i	1	29	78	-3
CCC1CCC(C(=O)NNC(=O)OC)CC1 (configuration not stated)	101	2.3	i	0.96	17	102	-6

The listing continues.
Values run as follows: RGS16-Gao HTS | GALR2 ag | HSV augment | HSV augment primary fold | Insulin prom inh | Insulin prom inh cell count | PKD1 inh
COc1ccc(CN2CC(C(=O)NCC3CCCO3)CC2=O)cc1 (configuration not stated)
    103 | -2.1 | i | 1.1 | -37 | 96 | -4
CC(C)c1ccc(S(=O)(=O)/N=C2/C=C(Sc3ncn[nH]3)C(=O)c3ccccc32)cc1
    94 | -1.3 | i | 0.83 | -118 | 19 | -7
O=C(c1n[nH]c2ccccc12)N1CCN(S(=O)(=O)c2ccc3ccccc3c2)CC1
    86 | -0.3 | i | 0.76 | / | / | -7
c1ccc(-c2nnc(-c3c[nH]c4ccccc34)nc2-c2ccccc2)cc1
    105 | -0.2 | i | 0.99 | 11 | 128 | -7
COc1ccc(CCNC(=O)CCc2ccc(S(=O)(=O)NCC(C)C)cc2)cc1
    101 | -0.9 | i | 0.83 | -115 | 86 | -11
CC(C)[N+]1(C)[C@@H]2CC[C@H]1CC(OC(=O)C(CO)c1ccccc1)C2 (some centres not stated)
    102 | -0.9 | i | 1 | 24 | 143 | -11
O=C(CCCCn1c(=O)c2ccccc2n(CC(=O)Nc2ccccc2)c1=O)NCc1ccco1
    104 | -3.0 | i | 0.96 | -13 | 131 | -5
FC(F)(F)c1nnc2sc(-c3cccs3)nn12
    98 | -3.6 | i | 0.76 | -76 | 152 | -6
CCn1nc(NC(=O)c2ccncc2)c2cc3cc(C)ccc3nc21
    101 | -0.6 | i | 0.89 | -229 | 93 | -8
O=C(c1ccncc1)c1ccc(N2CCN(C3CC(=O)N(Cc4ccccc4)C3=O)CC2)cc1 (configuration not stated)
    107 | 3.8 | i | 0.87 | 19 | 84 | 3
Cc1nc2cc(NS(=O)(=O)c3ccccc3F)ccc2s1
    104 | / | i | 1.1 | / | / | /
Cc1ccc(-c2nc(CN(C)C3CCOC3)c(C)o2)s1 (configuration not stated)
    97 | / | i | 1 | / | / | 5
O=C(CN1C(=O)NC2(CCCCCCC2)C1=O)NC(=O)NCc1ccco1
    103 | -2.4 | i | 1 | / | / | 10
O=C(NC(=S)Nc1ccc(N2CCOCC2)cc1)c1cccs1
    73 | / | i | 0.98 | / | / | 9
O=C(Cc1ccccc1)NCC1COc2ccccc2O1 (configuration not stated)
    / | -0.6 | i | 1.1 | -69 | 62 | -12
O=C(C1CCN(S(=O)(=O)c2cccnc2)CC1)N1CCCCC1
    104 | -2.0 | i | 0.77 | 18 | 136 | -1
Cc1[nH]nc2c1C(c1ccco1)C(C#N)=C(N)O2 (configuration not stated)
    102 | / | i | 1 | / | / | 0
CCc1ccccc1NC1=NCC(=O)N1Cc1ccc2c(c1)OCO2
    104 | -2.6 | i | 1 | 50 | 84 | 6
CC1(C(=O)NC2CCCCCCC2)CCC(=O)N1Cc1ccco1 (configuration not stated)
    98 | -1.8 | i | 0.84 | / | / | -6
